Cruzain inh Det = inhibitors of Trypanosoma cruzi cruzain with detergent | P25779 | purified cruzain, Z-FR-AMC fluorescence, 0.01% Triton | Potency, µM, without a hit: max response, negative = inhibition, most hits filed as inhibitors | actives 0.43% (n = 200,000) | AID 1478;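 note: plate controls were neutral wells for no effect and buffer without enzyme for full effect; nearly all actives have a fitted effect of over 40% in size; top concentration of the series not given in the record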
Target sequence (P25779 123-467 limits assumed): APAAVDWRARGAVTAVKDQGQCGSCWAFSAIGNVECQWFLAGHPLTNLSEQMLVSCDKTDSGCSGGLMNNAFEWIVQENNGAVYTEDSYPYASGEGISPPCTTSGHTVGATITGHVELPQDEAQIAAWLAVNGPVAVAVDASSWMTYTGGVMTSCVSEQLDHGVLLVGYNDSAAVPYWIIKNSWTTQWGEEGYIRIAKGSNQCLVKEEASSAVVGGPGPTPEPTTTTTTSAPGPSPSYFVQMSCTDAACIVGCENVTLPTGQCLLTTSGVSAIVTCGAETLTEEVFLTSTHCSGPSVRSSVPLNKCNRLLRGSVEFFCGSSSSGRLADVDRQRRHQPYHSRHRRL
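15 min RT preincubation of 1.5 nM cruzain with compound, then 2 uM Z-FR-AMC added; kinetic AMC fluorescence, 60 s delta. Triton X-100 0.01%, pH 5.5.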
Cruzain inh noDet = blocks cruzain activity in detergent-free assay; actives 2.3% (n = 200,000); Potency, µM, for the others: max response, negative = inhibition, hits mostly inhibitors; purified cruzain, Z-FR-AMC fluorescence, no detergent;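 note: plate controls were enzyme without inhibitor for no effect and buffer without enzyme for full effect; nearly all actives have a fitted effect of over 40% in size; top concentration of the series not given in the record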
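Detergent-free condition (0.00005% Triton X-100) in acetate buffer pH 5.5 with DTT. 1.5 nM enzyme and compound were pre-mixed 15 min, then 2 uM Z-FR-AMC substrate added; reaction progress from fluorescence change between first and third reads (60 s).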
SARS PLpro yeast = blocks SARS-CoV papain-like protease in a yeast assay; actives 0.19% (n = 330,000); Potency, µM (highest dose often 32.9 µM), inactives show top-dose activity, positive = growth rescue; S. cerevisiae expressing SARS-CoV PLpro, growth rescue; control for the full effect not named in the record; AID 485353; active means well fitted rising curve with a large enough effect; inconclusive means small, poorly fitted or top-dose-only effect; inactive means no such curve, though single readings can be large or run the other way; note: 0% is about no effect; nearly all actives have a fitted effect of over 55% in size; growth read by luminescence after 48 h
2A StopGo = FMDV 2A StopGo reporter, luciferase signal; human cells with a luciferase reporter of 2A StopGo recoding; control for the full effect not named in the record; Potency, µM (highest dose often 57.9 µM), without a hit: at the top dose signal change, negative = less light; actives 1.2% (n = 410,000); AID 1159524; active = well fitted falling curve with a large enough effect; inconclusive = small, poorly fitted or top-dose-only effect; inactive = no such curve, though single readings can be large or run the other way; tested in HEK293T cells; note: % is set by controls: 0 for no effect and ±100 for the full control effect; nearly all actives have a fitted effect of over 45% in size; luciferase light after 4 h
RE007 growth inh = less growth of the S. pombe RE007 Vpr strain; S. pombe RE007 Vpr strain, BacTiter-Glo ATP luminescence, 24 h; control for the full effect not named in the record; Potency, µM (doses to about 92.2 µM), without a hit: at the top dose activity change, negative = less growth; actives 0.21% (n = 360,000); active = well fitted falling curve with a large enough effect; inconclusive = small, poorly fitted or top-dose-only effect; inactive = no such curve, though single readings can be large or run the other way;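 note: % is set by controls: 0 for no effect and ±100 for the full control effect; nearly all actives have a fitted effect of over 50% in size; the assay follows cell death caused by Vpr and the record does not say whether a fall means rescue or toxicity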
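Fission yeast strain RE007, carrying one chromosomally integrated HIV-1 vpr copy, was seeded at OD 0.01 in PMG+AL medium with 23 nL pinned compound. After 24 h at 30 °C and 99% humidity, viability was read by BacTiter-Glo luminescence.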
Lassa entry inh = blocks Lassa virus binding to or entry into cells; Lassa virus pseudotype entry inhibition, cell reporter; control for the full effect not named in the record; Potency, µM (titrated, usually from 37.9 µM), for inactives: top-dose activity change, negative = inhibition, most hits filed as inhibitors; actives 1.2% (n = 300,000); AID 540256; active means well fitted inhibition curve with a large enough effect; inconclusive means small, poorly fitted or top-dose-only effect, or effect the other way; inactive means flat fitted curve, though single readings scatter; tested in HEK293 cells; note: % is set by controls: 0 for no effect and ±100 for the full control effect; nearly all actives have a fitted effect of over 50% in size; luciferase read-out
NS1 function inh = blocks influenza NS1 protein function | S. cerevisiae slowed by influenza A NS1, growth recovery by OD600 | AID 2326 | Potency, µM (highest dose often 46.1 µM), for inactives: top-dose activity, positive = more growth | actives 0.4% (n = 270,000); active means well fitted rising curve with a large enough effect; inconclusive means small, poorly fitted or top-dose-only effect; inactive means no such curve, though single readings can be large or run the other way; note: nearly all actives have a fitted effect of over 50% in size
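Read-out: OD600 growth recovery of NS1-expressing budding yeast. Cells grown overnight at 30C in -URA glucose medium, washed, resuspended and diluted 1:100 in 2% galactose assay medium, pH 6.0. Same strain lacking NS1 served as positive control.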
MARV entry inh = blocks Marburg virus binding to or entry into cells. Marburg virus pseudotyped entry inhibition, cell reporter; control for the full effect not named in the record; about a third of the inactives were read at about 46 µM. Potency, µM (series often up to 37.8 µM), for the others: at the highest dose activity change, negative = inhibition, hits mostly inhibitors. actives 1.8% (n = 300,000). AID 540276; active = well fitted inhibition curve with a large enough effect; inconclusive = small, poorly fitted or top-dose-only effect, or effect the other way; inactive = flat fitted curve, though single readings scatter; tested in HEK293 cells; about a fifth of its hits are not listed in these tables; note: % is set by controls: 0 for no effect and ±100 for the full control effect; luciferase read-out
Starred values were filed as active, the others as inactive; ? = inconclusive; · = not tested or not shown; & = joins results of further samples; [ ] = another dose, or the depositor's remark. Unless noted, calls come from the whole dose curve; as a rule, active = well fitted curve in the direction sought with a large enough effect; inconclusive = small, poorly fitted or top-dose-only effect, or another doubt; inactive = no such curve, though single readings can be large; an effect the other way counts as inactive or inconclusive. Potency is the fitted concentration of half-maximal effect. This is a random part of the collection; overall some 4.7% were active at least once.

Screens in order: Cruzain inh Det | NS1 function inh | SARS PLpro yeast | Cruzain inh noDet | MARV entry inh | RE007 growth inh | 2A StopGo | Lassa entry inh
(1) FC(F)(F)c1cccc(N2CCN(CC3CC=CCC3)CC2)c1 (stereo unspecified)
  1.1% | 0.4% | -10.0% | 1.4% | 0.7% | 1.2% | -26.1% | -5.8%
(2) CC(=O)Nc1ccc(CN2CCN(CCC(C)C)C(CCO)C2)cc1 (stereo unspecified)
  · | -0.4% | -0.6% | · | -0.6%[46.1 µM] | 7.0% | 5.9% | 0.9%[46.1 µM]
(3) O=C(Nc1cccc(-c2csc(Nc3ccc(Cl)cc3)n2)c1)c1ccccc1
  · | 15.5% | -5.0% | · | · | -8.0% | -7.3% | ·
(4) CCOC(=O)c1c(C)[nH]c(C(=O)CN2C(=O)NC3(CCCC3)C2=O)c1C
  · | -0.4% | -0.2% | · | 22.8%[46.1 µM] | 5.0% | 15.2% | -7.3%[46.1 µM]
(5) Cc1c(Cl)c([N+](=O)[O-])nn1Cc1ccc(C(=O)NN)o1
  · | 4.4% | 0.7% | · | · | -3.5% | -3.4% | ·
(6) O=C(Nc1nc(-c2ccco2)c(-c2ccco2)s1)c1ccc(F)cc1F
  · | · | -4.7% | · | 16.5% | 80.5% | 20.1% | 17.9%
(7) O=C(CCSc1ccccc1)NC(=O)COC(=O)c1ccc(OC(F)F)cc1
  -6.9% | 2.5% | -16.5% | 3.3% | · | 2.9% | -17.1% | ·
(8) COC1=C(C)C(O)=C(C(=O)/C=C/c2ccccc2)C(=O)C1(C)C
  · | -15.9% | 5.5% | · | · | -2.6% | -4.3% | ·
(9) CC(C)(C)NC(=O)c1cccc(NC(=O)c2ccc3c(c2)C(=O)N(C(C)(C)C)C3=O)c1
  · | -8.6% | 0.8% | · | ? | 10.1% | 25.1µM* | ?
(10) O=C(/C=C/c1cccc(Cl)c1)NCc1ccccc1
  · | -5.2% | -6.5% | · | -2.1%[46.1 µM] | -5.3% | 22.3% | -0.2%
(11) O=C(COC(=O)c1ccc2c(c1)OCO2)NC1CCS(=O)(=O)C1 (stereo unspecified)
  0.0% | 5.6% | 4.2% | -0.3% | ? | -14.9% | -8.8% | 11.6%
(12) c1cn2c(NC3CCCC3)c(-c3ccc(N4CCOCC4)cc3)nc2cn1
  -7.6% | -58.6% | -3.2% | -2.6% | · | 7.1% | -19.2% | ·
(13) COc1cc(OC)cc(C(=O)NCC(=O)NCC(c2ccco2)N2CCCCC2)c1 (stereo unspecified)
  · | · | 4.0% | · | 0.7% | -15.7% | -15.4% | 0.1%
(14) Cc1cccc(NC(=S)NCCC(c2ccccc2)c2ccccc2)c1
  -4.9% | 17.2% | 8.3% | -7.5% | 4.7% | -3.2% | -5.0% | -12.3%
(15) COc1ccc2oc(=O)c(C(=O)Nc3cccc(C)c3)cc2c1
  · | 3.2% | 0.6% | · | ? | -18.6% | 4.9% | -0.1%[46.1 µM]
(16) COc1ccc(Br)cc1S(=O)(=O)N1CCOCC1
  -2.1% | 4.5% | 1.9% | -2.8% | -18.5% | -3.9% | 0.4% | 10.1%
(17) CC(NC(=O)Cc1ccc(S(=O)(=O)N2CCOCC2)s1)c1ccc(Cl)cc1Cl (stereo unspecified)
  · | · | · | · | · | 4.2% | -19.9% | 1.3%
(18) Cc1ccc(N2CC(C(=O)Nc3nnc(SCc4cccnc4)s3)CC2=O)cc1 (stereo unspecified)
  · | 1.0% | ? | · | -18.9% | 2.9% | -7.9% | -3.0%
(19) CC1CC(C)CN(S(=O)(=O)c2cccc3nonc23)C1 (stereo unspecified)
  · | -0.8% | -2.8% | · | · | 0.0% | -14.4% | ·
(20) O=S(=O)(NCc1ccc2c(c1)OCO2)c1cccc2cccnc12
  4.3% | -1.8% | 7.4% | -11.0% | 0.1% | 6.5% | 28.6% | ?
(21) CCCCCCCCOc1ccc(C(=O)O)cc1
  -8.8% | · | 6.6% | -18.7% | · | 16.7% | 5.6% | ·
(22) CC1CCc2nn(CC(=O)NCCC3=CCCCC3)cc2C1 (stereo unspecified)
  -1.9% | -21.0% | -1.4% | 30.0% | · | -26.4% | -3.6% | ·
(23) O=C(c1ccco1)N1CCN(C(=O)c2cnn3cccnc23)CC1
  -1.3% | 1.6% | 1.9% | -4.8% | 0.0% | -2.6% | · | -12.1%
(24) Cc1cc(C)c(N)cc1C
  5.2% | · | -0.3% | -6.5% | · | 0.1% | -16.7% | ·
(25) COc1ccc(-c2cn3c(n2)sc2cc(C(=O)NCCCN4CCN(C)CC4)ccc23)cc1
  -0.7% | · | · | -6.0% | · | · | 15.6% | 6.5%[46.1 µM]
(26) Cc1ccc(NC(=O)CCn2c(=O)oc3ccccc32)cc1
  1.2% | -5.5% | 1.2% | -3.5% | -10.3% | -2.9% | -7.3% | 0.6%
(27) CCOC(=O)N1CCN(C(=O)CCc2c(C)nc3nc(C)nn3c2C)CC1
  11.2% | 0.1% | 3.7% | -5.8% | 9.0% | 2.2% | 17.8% | 1.4%
(28) Cc1cc(NC(=O)CSc2nnc(-c3ccccc3Cl)o2)no1
  · | -2.5% | 1.1% | · | 6.7% | 10.1% | -16.5% | 19.4%
(29) CCN=C1S/C(=C\c2ccc(N3CCOCC3)cc2C)C(=O)N1CC
  -10.7% | 9.4% | 5.5% | 14.9% | ? | 1.8% | -0.8% | ?
(30) CCOc1ccccc1N(C)C(=O)C1CCN(S(=O)(=O)c2cccc3nonc23)CC1
  1.8% | -9.2% | -1.5% | ? | ? | 2.3% | -12.8% | -15.0%
(31) Cc1c(NC(=O)c2ccc(F)cc2)c(=O)n(-c2ccccc2)n1C
  -2.7% | -4.5% | -3.9% | -2.6% | · | -0.4% | -8.9% | ·
(32) CCOc1ccc(CN2CCN(S(=O)(=O)c3ccc(NC(C)=O)cc3)CC2)cc1OC
  -1.3% | -10.3% | 1.2% | 2.6% | 0.2%&-17.3% | -5.2% | · | 0.1%
(33) Cc1cc(C=C2C(=O)c3ccccc3C2=O)c(C)n1-c1ccc(Cl)cc1
  -1.1% | -2.7% | -6.5% | ? | -1.3% | -0.7% | -6.5% | 9.1%
(34) Cn1c(-c2ccc3c(c2)OCO3)cnc1NCc1cccc(Cl)c1
  -4.4% | -22.5% | 2.0% | 6.6% | 5.3% | -28.4% | 6.8% | ?
(35) COc1ccc(-c2cc(CCCC(=O)NCCc3cc(OC)ccc3OC)no2)cc1
  -1.3% | -14.9% | -1.8% | ? | ? | -15.4% | ? | -6.6%
(36) CC(C)c1ccc(N2C(=O)CC(Sc3ncn[nH]3)C2=O)cc1 (stereo unspecified)
  3.8% | -32.3% | -35.4% | 3.98µM* | -22.8% | 56.2µM* | -29.3% | 1.7%
(37) Cc1ccc(NC2=NC(c3ccccc3)n3c(nc(C)cc3=O)N2)c(C)c1 (stereo unspecified)
  7.1% | -9.2% | 2.1% | -1.0% | 3.8% | 3.8% | -2.4% | -0.1%
(38) Cc1ccc(-c2nnn(CC(=O)N3C(C)CCCC3C)n2)cc1 (stereo unspecified)
  · | 4.9% | 17.1% | · | ? | 9.0% | 28.6% | 0.4%
(39) COc1c(Cl)cc(Cl)cc1C(=O)Nc1ccccc1N1CCN(C(C)=O)CC1
  · | -12.5% | · | · | 2.4% | -13.3% | -6.4% | 7.8%
(40) O=C(COC(=O)CCC(=O)N1CCOCC1)Nc1ccc(Br)cc1Br
  · | · | 3.2% | · | 19.4% | -17.7% | 11.3% | ?

Whole records, looked up by structure.
`CCOc1ccc(CN2CCN(S(=O)(=O)c3ccc(NC(C)=O)cc3)CC2)cc1OC` is entered as Cruzain inh Det = -1.3%; NS1 function inh = -10.3%; SARS PLpro yeast = 1.2%; Cruzain inh noDet = 2.6%; MARV entry inh = 0.2%&-17.3%; RE007 growth inh = -5.2%; 2A StopGo = ·; Lassa entry inh = 0.1%
`Cc1c(NC(=O)c2ccc(F)cc2)c(=O)n(-c2ccccc2)n1C` is entered as Cruzain inh Det = -2.7%; NS1 function inh = -4.5%; SARS PLpro yeast = -3.9%; Cruzain inh noDet = -2.6%; MARV entry inh = ·; RE007 growth inh = -0.4%; 2A StopGo = -8.9%; Lassa entry inh = ·
`CC1CCc2nn(CC(=O)NCCC3=CCCCC3)cc2C1` (stereo unspecified) is entered as Cruzain inh Det = -1.9%; NS1 function inh = -21.0%; SARS PLpro yeast = -1.4%; Cruzain inh noDet = 30.0%; MARV entry inh = ·; RE007 growth inh = -26.4%; 2A StopGo = -3.6%; Lassa entry inh = ·

Later entries
Screens in order: Cruzain inh Det | NS1 function inh | SARS PLpro yeast | Cruzain inh noDet | MARV entry inh | RE007 growth inh | 2A StopGo | Lassa entry inh
(41) CCOc1cc(NC(=S)Nc2cccc(OC)c2)c(OCC)cc1NC(=O)c1ccc(C)cc1
  -1.3% | ? | 9.0% | ? | ? | -11.9% | 12.9% | 1.2%
(42) C=C1CCC[C@]2(C)C[C@H]3OC(=O)C(CN4CCOCC4)[C@H]3C[C@@H]12 (stereo partly specified)
  · | 8.4% | 18.6% | · | · | ? | -15.9% | ·
(43) CC(=O)Nc1ccc(S(=O)(=O)NC2(C(F)(F)F)NC(=O)N(c3ccc(Cl)cc3)C2=O)cc1 (stereo unspecified)
  0.1% | 4.3% | 0.8% | 0.7% | ? | -11.2% | -11.6%&8.7% | 0.3%[46.1 µM]
(44) O=C(CN1C(=O)NC2(CCCC2)C1=O)c1ccc(Cl)s1
  · | · | -4.2% | · | 24.2%[46.1 µM] | 0.1% | 22.8% | -3.4%
(45) CN1CCN(NC(=O)c2cc(-c3cccc(Cl)c3)nc3ccccc23)CC1
  · | · | -3.6% | · | ? | -3.6% | -12.5% | ?
(46) CCCC(=O)c1ccc(-c2ccccc2)cc1
  2.7% | -15.5% | -1.8% | -11.1% | ? | 2.3% | 31.6%[activator] | 0.1%
(47) Cc1ccc(N(CCC#N)C(=O)CSc2ccc3c(c2)OCCO3)cc1
  0.4% | -11.2% | -0.7% | 3.2% | -0.5% | 0.0% | -7.5% | 3.0%
